Source: PubChem
Rango complex inh: Rango-importin beta binding inhibition; Q14974; Rango CFP/YFP FRET sensor + importin beta, 45 min; Potency, µM (top dose mostly 92.2 µM), inactives show at the highest dose inhibition of complex formation; hit rate 0.031% among 340,000; AID 540263; active = rising FRET ratio curve, often small or poorly fitted; inconclusive = mostly compound fluorescence or quenching in the first reads; inactive = flat curves in all reads;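 further: potency means the concentration at half of the fitted maximal effect; 0% = DMSO wells and 100% = buffer wells lacking importin beta; nearly all actives have a fitted effect of over 15% in size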
Target sequence (Q14974 whole entry, looked up): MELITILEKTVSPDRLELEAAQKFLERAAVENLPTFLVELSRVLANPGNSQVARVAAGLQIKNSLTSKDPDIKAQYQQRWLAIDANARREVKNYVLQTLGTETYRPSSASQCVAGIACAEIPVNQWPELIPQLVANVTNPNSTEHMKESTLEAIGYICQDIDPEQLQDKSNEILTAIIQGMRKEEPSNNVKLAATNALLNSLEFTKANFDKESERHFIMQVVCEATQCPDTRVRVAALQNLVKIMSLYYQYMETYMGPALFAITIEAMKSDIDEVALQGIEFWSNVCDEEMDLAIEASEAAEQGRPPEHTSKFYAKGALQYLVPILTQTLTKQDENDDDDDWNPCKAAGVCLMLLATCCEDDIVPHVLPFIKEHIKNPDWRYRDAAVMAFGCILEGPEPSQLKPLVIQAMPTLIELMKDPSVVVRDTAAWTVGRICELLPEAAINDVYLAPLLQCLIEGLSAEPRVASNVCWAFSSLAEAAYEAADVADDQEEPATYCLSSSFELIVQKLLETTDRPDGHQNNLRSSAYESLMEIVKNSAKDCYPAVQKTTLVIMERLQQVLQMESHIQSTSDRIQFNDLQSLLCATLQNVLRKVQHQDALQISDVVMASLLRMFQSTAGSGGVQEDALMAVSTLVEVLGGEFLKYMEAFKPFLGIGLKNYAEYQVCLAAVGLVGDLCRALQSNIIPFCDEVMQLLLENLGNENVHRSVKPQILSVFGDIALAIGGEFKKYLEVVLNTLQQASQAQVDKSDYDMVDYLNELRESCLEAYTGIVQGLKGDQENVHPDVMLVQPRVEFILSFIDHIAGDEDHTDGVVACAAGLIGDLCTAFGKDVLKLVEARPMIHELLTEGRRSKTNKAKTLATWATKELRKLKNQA
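FRET biosensor Rango (snurportin 1 IBB between N-terminal EYFP and C-terminal Cerulean), 50 nM in PBS/1 mM DTT/0.02% Tween-20/0.1% BSA, preincubated 5 min RT with compound; 0.125 microM importin beta added, 45 min RT, CFP/YFP FRET ratio read.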
Rango release inh: inhibition of RanGTP-driven Rango-importin beta dissociation. Potency, µM (top dose mostly 46.1 µM), inactives show at the highest dose activity change, negative = inhibition. Biochemical FRET Rango-importin beta, RanGTP-induced dissociation. O95149+P62826. hit rate 0.071% among 340,000; active means falling FRET ratio curve, often poorly fitted, with flat reads before Ran was added; inconclusive means other falling curves, or compound fluorescence or quenching; inactive means flat or rising ratio curve;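 further: potency means the concentration at half of the fitted maximal effect; % of control where 0% means no effect; nearly all actives have a fitted effect of over 45% in size; -100% = wells without RanGTP and RCC1; the record marks most hits as doubtful in a second field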
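Compounds preincubate 5 min with complex of recombinant Rango and importin beta in PBS with 1 mM DTT. Ran (0.6 uM) loaded with 2 mM GTP plus 0.2 uM RCC1 starts dissociation; FRET is recorded 45 min later.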
miR-21 FLuc: miR-21 reporter, rising signal; Potency, µM (top dose mostly 38.3 µM), for the others: top-dose reporter change, positive = more light; 340,000 tested, under 10 active; HeLa miR-21 FLuc reporter, luciferase, 48 h; active = well fitted rising curve with a large enough effect; inconclusive = small, poorly fitted or top-dose-only effect; inactive = no such curve, though single readings can be large or run the other way;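 further: % of control where 0% means no effect; miR-21 action dims this reporter so a rising signal means less miR-21 action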
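Compounds were titrated across several concentrations (up to approximately 40 uM) and incubated 48 hours with HeLa miR-21-FLuc reporter cells (miR-21 target sequence downstream of FLuc, endogenous miR-21). Readout was firefly luciferase luminescence after lytic detection reagent.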
GLA inh pH 4.5: inhibitors of human alpha-galactosidase A at pH 4.5; activity change, negative = inhibition, % at 105 µM; AID 1467; purified enzyme, 4-MU-alpha-Gal fluorescence, pH 4.5; 230,000 tested, under 10 active; inconclusive = small, poorly fitted or top-dose-only inhibition, or a rising curve; inactive = flat fitted curve, though single readings scatter; no compound was filed as active;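 further: 0% = full activity with enzyme and -100% = basal without enzyme; dose as in the result columns while the protocol names 77 µM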
* marks the source's active call; other numbers are inactive results; ? = inconclusive; . = not tested or not shown; & = joins results of further samples.

Rango complex inh	Rango release inh	miR-21 FLuc	GLA inh pH 4.5	Molecule
0.7%	3%	-10%	3	CCc1cc2c(SCC(=O)N(C)C3CCS(=O)(=O)C3)ncnc2s1 (configuration not stated)
2.7%	-10%	-2%	9	C=CCNC(=O)COc1ccc(S(=O)(=O)N2CCCC2)cc1
2.6%	2%	6%	-4	CCCC(=O)Nc1ccccc1N1CCN(C(=O)C(C)C)CC1
-2.0%	-8%	18%	-3	COCc1cc(S(=O)c2ccc(Cl)cc2)nc(C)n1 (configuration not stated)
1.5%	?	-7%	4	COc1ccc(OCCCC(=O)Nc2cccc(SC)c2)cc1
-1.9%	4%	.	.	COc1cc(OC)cc(C(=O)NCC(=O)N2CC=C(c3ccccc3)CC2)c1
-0.2%	2%	0%	2	CCOC(=O)C1(Cc2cccc(Cl)c2)CCCN(C(=O)C2CC2)C1 (configuration not stated)
0.9%	-5%	0%	-9	COc1ccccc1/C=C/CN1CCCC(CCC(=O)NCc2ccc(F)c(F)c2)C1 (configuration not stated)
-2.7%	-19%	-6%	.	COc1ccc(Nc2nc3c(C)cccn3c(=O)c2C=O)cc1
-2.8%	7%	-63%	?	C(=N\Nc1ccccn1)/c1ccc(N2CCOCC2)cc1
-0.5%	2%	-4%&4%	.	CC(C)CCNC(=O)CN1N=C(c2ccc(Cl)cc2)CCC1=O
-3.2%	3%	.	.	Cc1ccccc1-c1nnc(SCC(=O)Nc2cccnc2Cl)o1
1.9%	1%	-1%	-3	CC(=O)Nc1ccc(/C=N/N2C(=O)NC(C)(c3ccc(OC(F)F)cc3)C2=O)cc1 (configuration not stated)
0.5%	1%	1%	5	CC(/C=C/c1ccccc1)NC(N)=O (configuration not stated)
-1.1%	5%	-2%	.	CCC(CC)C(=O)c1c[nH]c(C(=O)NCc2ccc(F)cc2)c1
3.0%	-14%	-14%	7	CCC(=O)NCCn1ccc2ccccc21
6.1%	-16%	-1%	-3	COc1cccc(/C=C2\Oc3cc(OC(=O)N4CCOCC4)ccc3C2=O)c1
2.9%	2%	-1%	-14	O=C1COc2ccc(-c3csc(NCCc4ccccc4)n3)cc2N1
-3.9%	39%	-4%	-3	Cn1cnc2c1c(=O)n(CC(O)CO)c(=O)n2C (configuration not stated)
-0.1%	-5%	1%	1	COc1cc(/C=N/NC(=O)CCc2c(C)n[nH]c2C)ccc1O
?	?	-15%	2	CN1/C(=C\C(=O)c2cccs2)Sc2ccccc21
-1.5%	-20%	-11%	3	O=C(Cn1c(=O)n(Cc2ccc3c(c2)OCO3)c(=O)c2ccccc21)N1CCCc2ccccc21
3.3%	8%	-1%	1	O=C(c1cc([N+](=O)[O-])ccc1Cl)N1CCN(c2ccccc2)CC1
?	-4%	-8%	-1	CCCC(=O)Nc1ccc(C(=O)N/N=C2\CC(=O)CC(C)(C)C2)cc1
-1.0%	29%	.	.	COc1ccc([C@H]2CC(=O)C=C(c3cccc(CO)c3)C2)cc1OC
-0.1%	-13%	.	.	Cc1cccnc1NC(=O)c1cccc(NC(=O)CC2SC(N3CCCCC3)=NC2=O)c1 (configuration not stated)
?	?	-1%	6	Cc1ccc2cc(C(c3nnnn3Cc3ccccc3)N3CCc4ccccc43)c(=O)[nH]c2c1C (configuration not stated)
-3.9%	-2%	6%	-3	CC(C)(C)NC(=O)N1CCCN(c2ccc(C(F)(F)F)cn2)CC1
1.9%	-10%	-11%	7	CCn1c(=N)n(CC(=O)C(C)(C)C)c2ccccc21
-1.9%	-7%	-9%	.	CC(c1ccon1)N(C)C(=O)c1ccc2nc(Cc3cccc(Cl)c3)oc2c1 (configuration not stated)

The closing four records of the section above are carried over, then new ones follow.
Rango complex inh	Rango release inh	miR-21 FLuc	GLA inh pH 4.5	Molecule
?	?	-1%	6	Cc1ccc2cc(C(c3nnnn3Cc3ccccc3)N3CCc4ccccc43)c(=O)[nH]c2c1C (configuration not stated)
-3.9%	-2%	6%	-3	CC(C)(C)NC(=O)N1CCCN(c2ccc(C(F)(F)F)cn2)CC1
1.9%	-10%	-11%	7	CCn1c(=N)n(CC(=O)C(C)(C)C)c2ccccc21
-1.9%	-7%	-9%	.	CC(c1ccon1)N(C)C(=O)c1ccc2nc(Cc3cccc(Cl)c3)oc2c1 (configuration not stated)
1.5%	3%	-11%	-1	CN1CCCC(OC(=O)c2ccc(Cl)cc2)C1 (configuration not stated)
-2.0%	8%	.	.	O=C(CSc1nc2ccccc2c(=O)n1CCCN1CCOCC1)Nc1ccccc1OC(F)F
-5.6%	-4%	-8%	4	Cc1c(C(=O)Nc2ccc(F)cc2)oc2ccc(S(=O)(=O)N3CCCC3)cc12
-1.0%	2%	1%	.	CN1CCCN(C(=O)c2ccc(Cl)cc2)CC1
-1.3%	-5%	2%	0	COc1ccccc1NC(=O)c1ccc(CS(=O)(=O)c2ccc(C)cc2)cc1
1.8%	12%	1%	-4	N#CCCn1cc(/C=N/O)c(-c2ccc(Cl)cc2)n1
-0.1%	-8%	-10%	-1	COC(=O)c1oc2c(c1C)C1(CCC2)SCCS1
-1.5%	-11%	-5%	.	Cc1ccc(C(=O)Nc2c(C)cc(C)c3cccnc23)cc1
-3.1%	-1%	-7%	6	N#CCCn1cc(CNCc2ccccc2)c(-c2cccc([N+](=O)[O-])c2)n1
3.1%	1%	-10%	7	CCCCNC(=O)N1CCN(c2ccccc2OC)CC1
4.1%	-8%	-2%	.	CC(C)C(NC(=O)c1cccs1)C(=O)NC1CCCCC1 (configuration not stated)
0.8%	-5%	.	.	CCN(c1ccc(NC(=O)COC(=O)/C=C/c2ccco2)cc1)C(C)C
3.6%	0%	.	.	COc1ccc(S(=O)(=O)N2CCCCCC2)cc1NC(=O)c1ccccc1F
?	?	-7%	-8	CC1(C)CC(=O)C(C=Nc2ccc(C(=O)c3ccccc3)cc2N=CC2=C(O)CC(C)(C)CC2=O)=C(O)C1
-2.8%	-5%	-2%	8	FC(F)Oc1ccc(NC(=S)NCc2nc3ccccc3[nH]2)cc1
0.7%	-5%	1%	1	O=C(c1cccc([N+](=O)[O-])c1)N1CCCC(C(=O)N2CCCCCC2)C1 (configuration not stated)
6.2%	9%	3%	-3	CCC(C)N(C(=O)Cn1nnc2ccccc21)C(C(=O)Nc1ccc(F)cc1)c1cccc(OC)c1 (configuration not stated)
-2.5%	20%	0%	-23	O=C(C1CCN(S(=O)(=O)N2CCCC2)CC1)N1CCCCC1
0.0%	12%	13%	.	COc1ccccc1CCNC(=O)Cn1ccc2cc(S(=O)(=O)N3CCC(C)CC3)ccc21
?	0%	.	.	COc1ccc2nc3cc([N+](=O)[O-])ccc3c(NNc3ccc([N+](=O)[O-])cc3)c2c1
-2.8%	1%	-2%	-6	CC(C)=C1C2CCC1C1C(=O)N(CCc3ccccc3)C(=O)C21 (configuration not stated)
-0.2%	-10%	-19%	.	Cc1ccccc1NC(=S)NC(=O)C1CCCCC1
4.5%	-12%	-2%	4	Cc1cccc(NC(=S)NNC(=O)c2ccc(O)cc2O)c1C
1.2%	8%	-5%	-23	N#Cc1cccc(C(c2nnnn2C2CCCC2)N2CCCCCC2)c1 (configuration not stated)
0.3%	5%	.	.	CCNC(=S)NCC
2.5%	-3%	-39%	.	CCOC(=O)C1=C(COC(=O)/C=C/c2ccccc2Cl)NC(=O)NC1C (configuration not stated)
-0.9%	-5%	.	.	O=C(c1cccc(N2C(=O)c3ccccc3C2=O)c1)N1CCCC(C(F)(F)F)C1 (configuration not stated)
4.1%	6%	0%	-6	COc1ccccc1C1CC(c2ccc(NS(C)(=O)=O)cc2)=NN1C(=O)c1ccccc1 (configuration not stated)
0.4%	23%	-2%	.	O=C(OC(C(=O)NCc1ccc(F)cc1)c1ccccc1)c1ccco1 (configuration not stated)
-5.0%	-10%	-8%	7	C/C(=N\NC(=O)C1COc2ccccc2O1)c1ccc(Cl)s1 (configuration not stated)
?	?	-11%	-3	COc1ccc(NC(=O)c2sc3nc(-c4cccnc4)ccc3c2N)cc1
-0.3%	21%	-1%	.	O=C(O)c1cc(NS(=O)(=O)c2ccc(NCc3ccccc3)c([N+](=O)[O-])c2)cc(C(=O)O)c1
?	-6%	-4%	.	O=C(CC1C(=O)NCCN1Cc1ccccc1C(F)(F)F)NC1CCCC1 (configuration not stated)
-2.0%	-5%	-17%	3	COc1ccc(OC)c(-c2nc(CN3CCCCC3c3cccnc3)c(C)o2)c1 (configuration not stated)
-2.5%	1%	-10%	.	Cc1cccc(NC(=O)COC(=O)c2ccccc2SCC(=O)N2CCCC2)c1
-4.9%	1%	-1%	-3	O=c1cc(Cc2ccccc2)[nH]c(=S)[nH]1
-1.2%	-28%	-4%	-6	N#CC1=C(N)Oc2n[nH]c(-c3cccs3)c2C1c1ccsc1 (configuration not stated)
-1.8%	12%	16%	2	Cc1ccc(NS(=O)(=O)c2cc(C(=O)Nc3cccc(N(C)S(C)(=O)=O)c3)ccc2C)c(C)c1
-0.3%	18%	-16%	-1	CC(=O)n1nc(-c2cccnc2)nc1NCc1cccs1
-5.2%	25%	1%	8	Cn1c(=O)[nH]c(=O)c2c1nc(NCc1ccccc1)n2CCCc1ccccc1
-1.3%	12%	3%	8	CCC(=O)NC1(C(F)(F)F)C(=O)Nc2c1c(=O)[nH]c(=O)n2Cc1ccco1 (configuration not stated)
0.4%	22%	.	.	O=C(c1cc(Cl)nc2ccccc12)N1CCN(S(=O)(=O)c2cccc(C(F)(F)F)c2)CC1
3.3%	30%	-16%	0	Cc1c(C)c2ccc(OCc3ccc(C(=O)O)o3)c(C)c2oc1=O
0.3%	21%	-19%	1	COc1ccc(Cc2nc3ccc(S(N)(=O)=O)cc3[nH]2)cc1OC
2.3%	18%	.	.	COc1ccccc1NC(=O)COC(=O)c1ccccc1SCC(=O)N1CCCC1
0.0%	24%	-4%	-3	OCCCCNCc1cc(Br)ccc1OCc1ccccc1
?	-19%	-5%	-1	CCCn1c(SCC(=O)N2CCN(c3ccccc3)CC2)nc2ccccc2c1=O
?	-22%	-34%	2	CCN1C(=O)N/C(=C/c2cc(C)n(Cc3ccccc3)c2C)C1=O
6.0%	0%	-36%	.	COc1ccc(C(=O)NC2=NCCS2)cc1
?	-5%	.	.	Cn1c(SCC(=O)NCC2CCCO2)ncc(C(=O)Nc2ccc(Cl)cc2)c1=O (configuration not stated)
-0.1%	-24%	9%	.	Cc1cccc(NS(=O)(=O)c2ccc3oc(=O)ccc3c2)c1C
-1.2%	-21%	-1%	-10	COc1cccc(-c2csc(N3CCN(C(=O)Nc4ccc(Cl)cc4)CC3)n2)c1
-5.2%	0%	1%	-2	Cc1cc(C)c(S(=O)(=O)N2CCC(C(N)=O)CC2)cc1C
-2.6%	0%	.	.	CC(=O)Nc1ccc(S(=O)(=O)O)c(OC(C)=O)c1
-0.2%	-12%	.	.	CN(C)CCCN(C(=O)c1cc2cc([N+](=O)[O-])ccc2s1)c1nc2cc3c(cc2s1)OCCO3
-1.0%	9%	-28%	2	Nn1c(Cc2cccc3ccccc23)nnc1SCc1c(Cl)cccc1Cl

An excerpt of these results, with two lines to a compound:
Under each structure: Rango complex inh | Rango release inh | miR-21 FLuc | GLA inh pH 4.5
- CC(=O)Nc1ccc(S(=O)(=O)O)c(OC(C)=O)c1
  -2.6% | 0% | . | .
- CN(C)CCCN(C(=O)c1cc2cc([N+](=O)[O-])ccc2s1)c1nc2cc3c(cc2s1)OCCO3
  -0.2% | -12% | . | .

Four records picked at random from those above:
Rango complex inh	Rango release inh	miR-21 FLuc	GLA inh pH 4.5	Molecule
1.8%	12%	1%	-4	N#CCCn1cc(/C=N/O)c(-c2ccc(Cl)cc2)n1
?	?	-7%	-8	CC1(C)CC(=O)C(C=Nc2ccc(C(=O)c3ccccc3)cc2N=CC2=C(O)CC(C)(C)CC2=O)=C(O)C1
?	-6%	-4%	.	O=C(CC1C(=O)NCCN1Cc1ccccc1C(F)(F)F)NC1CCCC1 (configuration not stated)
-1.5%	-20%	-11%	3	O=C(Cn1c(=O)n(Cc2ccc3c(c2)OCO3)c(=O)c2ccccc21)N1CCCc2ccccc21

Not all compounds are listed. The share of hits here may be higher or lower than overall.
